NPYLR7 agonist: mosquito NPYLR7 agonism. AID 1259423. activation, % at 10 µM. HEK293T NPYLR7/Galpha15, GCaMP6s calcium fluorescence. 0.15% of 270,000 active; in the data active = activation above about 40%;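 note: 0% = vehicle and 100% = reference agonist at the receptor; some compounds past the cut are filed as inactive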
NPYLR7 agonist max-min: recorded beside NPYLR7 agonist, whose call it bears; activation, %; measured here: Max-Min RFU normalised activation; some inactives read as strong as hits;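 span of the calcium signal over five minutes; 0% = vehicle and 100% = native peptide agonist; compound fluorescence can raise it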
* marks the source's active call; other numbers are inactive results; & = joins results of further samples; ! = repeats disagree. Only part of the results is shown; rates above refer to the full screens.

No. | molecule | NPYLR7 agonist | NPYLR7 agonist max-min
1 | CN1CCC(CNc2ccc3ncc(-c4cccc(OC(F)(F)F)c4)n3n2)CC1 | -6.1 | -15.7
2 | COc1cc2ncnc(Nc3cccc(Cl)c3)c2cc1OC | -0.1 | -0.7
3 | CCn1c(-c2nonc2N)nc2c(C#CC(C)(C)O)ncc(OC[C@H]3CCCNC3)c21 | -5.9 | -13.6
4 | CCn1c(=O)c2c(nc(/C=C/c3ccc(OC)c(OC)c3)n2C)n(CC)c1=O | 84.5* | 67.0*
5 | Cc1cn([C@H]2O[C@@H](CO)[C@H](O)[C@H]2F)c(=O)[nH]c1=O | -4.1 | -7.0
6 | CCCc1nc(C(C)(C)O)c(C(=O)O)n1Cc1ccc(-c2ccccc2-c2nn[nH]n2)cc1 | -8.1&-9.0 | -0.9&-15.4
7 | CC(=O)O[C@@]12CO[C@@H]1C[C@H](O)[C@@]1(C)C(=O)[C@H](O)C3=C(C)[C@@H](OC(=O)[C@H](O)[C@@H](NC(=O)OC(C)(C)C)c4ccccc4)C[C@@](O)([C@@H](OC(=O)c4ccccc4)C12)C3(C)C (some centres undefined) | 1.7 | 8.7
8 | COC(=O)c1sccc1S(=O)(=O)Nc1ccc(Nc2ccccc2)cc1OC | -0.1 | -10.1
9 | CN1CCCN=C1COC(=O)C(O)(c1ccccc1)C1CCCCC1 (centres undefined) | -12.7&-1.2 | -16.0&-6.1
10 | Cc1cn(C2CC(O)C(CO)O2)c(=O)[nH]c1=O (centres undefined) | -10.2 | -21.5
11 | CC(=O)O[C@]1(C(C)=O)CC[C@H]2[C@@H]3C=C(Cl)C4=CC(=O)C5CC5[C@]4(C)[C@H]3CC[C@@]21C (some centres undefined) | 16.7 | 3.6
12 | N[C@@H](Cc1c[nH]c2ccc(O)cc12)C(=O)O | -3.9 | -18.2
13 | N#Cc1ccc(C(c2ccc(C#N)cc2)n2cncn2)cc1 | 12.9&-9.3 | -3.3&-15.9
14 | Cc1c(C(=O)N2CCOc3ccc(-c4ccc(N)nc4)cc3C2)ccc(S(C)(=O)=O)c1F | 0.0 | -5.5
15 | CC1Cc2ccccc2N1NC(=O)c1ccc(Cl)c(S(N)(=O)=O)c1 (centres undefined) | -2.8&-7.0&2.2 | -8.3&-13.3&-0.9
16 | COc1cccc2cc(-c3nc(C4CCC(C(=O)O)CC4)n4ncnc(N)c34)[nH]c12 (centres undefined) | 20.2 | 1.7
17 | CCCCNc1ccc(C(=O)OCCN(C)C)cc1 | -3.1&-9.3&0.4 | -8.6&-11.7&4.4
18 | O=c1cc(O)c(Cl)c[nH]1 | -4.3 | -8.5
19 | O=C(O)CCC(=O)c1ccc(-c2ccccc2)cc1 | -7.3&-1.7 | -12.5&-4.6
20 | Cn1c(=O)cc(N2CCC[C@@H](N)C2)n(Cc2ccccc2C#N)c1=O | 1.8 | -1.2
21 | COc1cc2ncn(-c3cc(OCc4ccccc4C(F)(F)F)c(C(N)=O)s3)c2cc1OC | -11.2 | -14.0
22 | C/C=C/C(=O)N(CC)c1ccccc1C | -14.3&-8.0&-1.7 | -20.4&-11.0&-5.4
23 | O=C(CCCl)NCc1ccccc1 | -2.9 | -7.9
24 | CCOC(=O)[C@H](CCc1ccccc1)N[C@@H](C)C(=O)N1Cc2ccccc2C[C@H]1C(=O)O | -1.7&-8.3&-1.2 | -6.3&-15.9&-2.0
25 | C=C1c2cccc(O)c2C(O)=C2C(=O)[C@]3(O)C(=O)C(C(N)=O)C(=O)[C@@H](N(C)C)[C@@H]3[C@@H](O)[C@H]12 (some centres undefined) | -3.3&-4.5&-7.9 | -1.1&-6.9&-16.2
26 | Cc1cc([C@@H](C)Nc2ccccc2C(=O)O)c2nc(N3CCOCC3)cc(=O)n2c1 | 10.9 | 8.9
27 | C[C@]1(c2nc3c(C(N)=O)cccc3[nH]2)CCCN1 | -10.9 | -13.1
28 | Cc1cnc(-c2cc(N3CCN(C(=O)CCS(C)(=O)=O)CC3)ncc2Cl)c(C)c1 | -5.8 | -9.0
29 | CCN(CC)CCOC(=O)c1ccc(N)cc1 | -8.3&-4.1&-3.8&-2.9 | -11.5&-9.8&-9.0&24.0
30 | COc1cn(C)c(C(=O)NCCC(c2ccccc2)c2ccccc2)cc1=O | 0.4 | -0.2

Results in sequence from the list:
Nos. 14–21 in NPYLR7 agonist, in turn: 0.0, -2.8&-7.0&2.2, 20.2, -3.1&-9.3&0.4, -4.3, -7.3&-1.7, 1.8, -11.2
Nos. 14–21 in NPYLR7 agonist max-min, in turn: -5.5, -8.3&-13.3&-0.9, 1.7, -8.6&-11.7&4.4, -8.5, -12.5&-4.6, -1.2, -14.0

The listing continues.
No. | molecule | NPYLR7 agonist | NPYLR7 agonist max-min
31 | COc1ccc(C2CNC(=O)C2)cc1OC1CCCC1 (centres undefined) | -7.4&-2.0&3.1 | -14.0&-3.4&-24.2
32 | CC1(C)O[C@@H]2CC3C4C[C@H](F)C5=CC(=O)C=C[C@]5(C)[C@@]4(F)[C@@H](O)C[C@]3(C)[C@]2(C(=O)CO)O1 (some centres undefined) | -2.2 | -9.3
33 | CN(C)C(=O)c1ccc(S(=O)(=O)c2ccc(NC(=O)[C@@](C)(O)C(F)(F)F)c(Cl)c2)cc1 | 26.2 | 4.7
34 | CC12CC3CC(C)(C1)CC(N)(C3)C2 | 19.5&-4.9&16.0&-11.9&1.7 | 9.0&-12.4&5.6&15.3&-6.5
35 | Cc1ccc(NC(=O)C2(c3ccc4c(c3)OC(F)(F)O4)CC2)nc1-c1cccc(C(=O)O)c1 | -12.1 | -20.6
36 | CCc1ccc(CCOc2ccc(CC3SC(=O)NC3=O)cc2)nc1 (centres undefined) | -14.0&-10.4&-1.8 | -15.0&-17.7&-6.1
37 | Cc1ccc(=O)n(-c2ccccc2)c1 | 4.3 | -39.9
38 | O=c1oc2c(O)c(O)cc3c(=O)oc4c(O)c(O)cc1c4c23 | -10.2 | -13.5
39 | CCN(CC)CCNC(C(=O)OCCC(C)C)c1ccccc1 (centres undefined) | -5.1 | -9.1
40 | C[C@H](NCc1ccc(OCc2cccc(F)c2)cc1)C(N)=O | 1.7 | 2.2
41 | NC(N)=O | -5.7 | -13.3
42 | CC(C)COC(=O)c1ccc(N)cc1 | -0.6 | -1.5
43 | CCOC(=O)[C@H](CCc1ccccc1)N[C@H]1CS[C@H](c2cccs2)CN(CC(=O)O)C1=O | -7.8 | -13.0
44 | CC(C)(F)C[C@H](N[C@@H](c1ccc(-c2ccc(S(C)(=O)=O)cc2)cc1)C(F)(F)F)C(=O)NC1(C#N)CC1 | -3.9 | -8.8
45 | CCn1cc(C(=O)O)c(=O)c2cnc(N3CCNCC3)nc21 | 70.5*! | 59.9*!
46 | COc1nccc(-c2c(-c3ccc(F)cc3)ncn2C2CCC(O)CC2)n1 (centres undefined) | -13.1 | -17.7
47 | NC1CCN(c2nc3c(cc2F)c(=O)c(C(=O)O)cn3-c2ccc(F)cc2F)C1 (centres undefined) | -9.4 | -15.6
48 | O=C(O)c1cccnc1Nc1cccc(C(F)(F)F)c1 | -11.6&-4.3&6.1 | -18.1&-10.1&-46.3
49 | CC(C)NC[C@@H](C(=O)N1CCN(c2ncnc3c2[C@H](C)C[C@H]3O)CC1)c1ccc(Cl)cc1 | 4.7 | -2.3
50 | CCNC(=O)NCc1cccc(Cl)c1 | -22.9 | -29.1
51 | CC(=O)CCCCn1c(=O)c2c(ncn2C)n(C)c1=O | -16.0&-5.6&-2.8&3.7&3.6 | -23.0&-8.6&-5.4&0.0&-29.2
52 | O=C(NC1CCOCC1)c1ccc(-c2cc(-c3cn[nH]c3-c3ccccn3)ccn2)cc1 | -0.4 | -3.4
53 | c1cc(-c2cnn3cc(-c4ccc(N5CCNCC5)cc4)cnc23)c2cccnc2c1 | 4.5 | -2.2
54 | CCc1cccc(CC)c1NC(=O)N1Cc2[nH]nc(NC(=O)c3ccc(N4CCN(C)CC4)cc3)c2C1 | -2.0 | -5.4
55 | c1cnc2cc3c(cc2n1)C1CNCC3C1 | -5.6 | -12.3
56 | CC12CCC(=O)C=C1CCC1C2CCC2(C)C1CCC2(O)C(=O)CO (centres undefined) | -3.5 | -6.9
57 | COc1ccnc2[nH]cc(C(=O)C(=O)N3CCN(C(=O)c4ccccc4)C[C@H]3C)c12 | 6.4 | -2.3
58 | NOCC(=O)O | 0.7 | -4.8
59 | Cc1cc(C)c(CNC(=O)c2cc(-c3ccc(CN4CCOCC4)cc3)cc3c2cnn3C2CCCC2)c(=O)[nH]1 | -1.3 | -5.2
60 | CCCCNc1ccc(C(=O)OCCOCCOCCOCCOCCOCCOCCOCCOCCOC)cc1 | -2.6 | -4.8

Reformatted with one line to a screen: part of the list above
39. CCN(CC)CCNC(C(=O)OCCC(C)C)c1ccccc1 (centres undefined)
40. C[C@H](NCc1ccc(OCc2cccc(F)c2)cc1)C(N)=O
41. NC(N)=O
42. CC(C)COC(=O)c1ccc(N)cc1

| assay / compound | 39 | 40 | 41 | 42 |
| --- | --- | --- | --- | --- |
| NPYLR7 agonist | -5.1 | 1.7 | -5.7 | -0.6 |
| NPYLR7 agonist max-min | -9.1 | 2.2 | -13.3 | -1.5 |

The listing picks up with the 2 entries that preceded the break.
No. | molecule | NPYLR7 agonist | NPYLR7 agonist max-min
59 | Cc1cc(C)c(CNC(=O)c2cc(-c3ccc(CN4CCOCC4)cc3)cc3c2cnn3C2CCCC2)c(=O)[nH]1 | -1.3 | -5.2
60 | CCCCNc1ccc(C(=O)OCCOCCOCCOCCOCCOCCOCCOCCOCCOC)cc1 | -2.6 | -4.8
61 | CC1(C)CNc2cc(NC(=O)c3cccnc3NCc3ccncc3)ccc21 | -5.0 | -12.6
62 | Cc1c(Cn2ccnc2)c2ccccc2n1CCC(=O)O | -26.4 | -34.4
63 | C[C@@H]1CC2C3CCC4=CC(=O)C=C[C@]4(C)[C@@]3(Cl)[C@@H](O)C[C@]2(C)[C@@]1(OC(=O)c1ccco1)C(=O)CCl (some centres undefined) | -3.6 | -15.7
64 | NC1=NC(c2cccc(F)c2)n2c(nc3ccccc32)N1 (centres undefined) | 7.9 | 1.0
65 | NS(=O)(=O)c1ccc(NC(=O)COc2ccc(Br)cc2Cl)cc1 | 10.9 | 13.7
66 | CCOC(N)=O | -3.8 | -5.0

A draw from above in order of formula weight, ascending.
No. | molecule | NPYLR7 agonist | NPYLR7 agonist max-min
64 | NC1=NC(c2cccc(F)c2)n2c(nc3ccccc32)N1 (centres undefined) | 7.9 | 1.0
62 | Cc1c(Cn2ccnc2)c2ccccc2n1CCC(=O)O | -26.4 | -34.4
65 | NS(=O)(=O)c1ccc(NC(=O)COc2ccc(Br)cc2Cl)cc1 | 10.9 | 13.7

Screens deposited in PubChem BioAssay by Fisher Drug Discovery Resource Center.
